Bead autofluor – counter-screen for toxin protease inhibitors: compound fluorescence; compound autofluorescence counterscreen, microsphere flow cytometry; stronger effect = higher value; fluorescence intensity (no concentration beside the values); 360,000 tested, 3.1% active; AID 624483;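 active = at least 3 SD above the mean of all compounds, about 16000 in these data; inconclusive = too few beads counted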;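 also: 100 nL of 1 mM stock went into each well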
PrP UTR inh – inhibition of PrP 5' UTR reporter expression; AID 488862, 2010; cell-based PrP 5' UTR mRNA reporter, plate reader; 340,000 tested, 0.35% active; inhibition, % (no concentration beside the values);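 active = every replicate at 50% or more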;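 also: 0 = median of the neutral control wells; tested in H4 reporter cells; numbers are from one replicate; inactives centre near -14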
BJeLR lethal – MLPCN primary cell-based screen for lethality selective to Ras in HRASV12 cells | AID 1554, 2009 | BJeLR (HRASV12) viability, CellTiter-Glo ATP luminescence, 48 h; reference of the scale not given here | 300,000 tested, 0.17% active | inhibition, % (concentration not given with the values);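 active = replicate mean above 50%; inconclusive = above 50% but judged a plate artefact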;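 also: 50 nL library stock added to about 25 µL; numbers are from one replicate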
Sa ugtP lethal – growth inhibition of ugtP-null S. aureus, primary screen, RN4220 ugtP deletion, OD600; 16 h; some inactives read as strong as hits; growth inhibition, % (test concentration not listed); 330,000 tested, 0.54% active;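 active = z-score under -3 and OD600 up to 0.15 on both plates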;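 also: plate controls were untreated wells for no effect and antibiotic for full effect; wells of about 80 µL received 100 nL stock; the first replicate is given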
Mtb hypoxia inh – PubChem AID 1159583; M. tuberculosis hypoxia-regulated fluorescent reporter, fluorescence; fluorescence inhibition, % (test concentration not listed); 300,000 tested, 0.1% active;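 active = 35 to 45% if threefold the growth effect, above 45% if 1.5-fold the growth effect; inactive = the rest, general growth blockers included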;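 also: wells of about 50 µL received 100 nL stock; 0% = vehicle wells and 100% = reference inhibitor wells; whole bacteria with a GFP reporter of the hypoxia response; strong numbers were not always called active; many hits fall short of the cut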
Sa RN4220 lethal – growth inhibition of S. aureus RN4220, primary screen, OD600 | 16 h | inhibition, % (test concentration not listed) | 330,000 tested, 0.33% active;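 active = z-score of -3 or lower and OD600 up to 0.18 on both plates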;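 also: plate controls were untreated cells for no effect and reference antibiotic for full effect; stock transfer was 100 nL into about 80 µL; one replicate is shown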
Mtb hypoxia inh growth – also measured in Mtb hypoxia inh; calls as there; growth inhibition, %; measured here: M. tuberculosis growth (absorbance);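 0% = vehicle and 100% = reference antibiotic; read after six days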
Numbers without * were called inactive; ? = inconclusive; · = no result given; & = joins results of further samples; ! = repeats disagree.

SMILES | Bead autofluor | PrP UTR inh | BJeLR lethal | Sa ugtP lethal | Mtb hypoxia inh | Mtb hypoxia inh growth | Sa RN4220 lethal
CC1=CC(=NOC(=O)/C=C/c2ccccc2)C=C(C)C1=O | 2739 | 8 | -8 | 17 | · | · | -1.7
Cc1c(NC(=O)C(C)N2CC(C)OC(C)C2)c(=O)n(-c2ccccc2)n1C (stereo not given) | ? | 13 | -8 | -1 | 1 | 3 | 1.6
C=CCn1c(=NC(=O)c2ccc(S(=O)(=O)N3CCc4ccccc4C3)cc2)sc2cc(S(N)(=O)=O)ccc21 | 9145 | -9 | 8 | 0 | 8 | -2 | 7.3
Fc1cccc(-c2cc3nc(-c4ccccc4)cc(N4CCC5(CC4)OCCO5)n3n2)c1 | 4071 | -25 | -3 | 5 | · | · | -12
Cc1cccc(-c2noc(CN(C)C(=O)COc3ccccc3)n2)c1 | 6045 | -4 | -1 | 4 | -4 | 5 | 1.8
O=C(NCCN1CCOCC1)c1ccc(CS(=O)c2ccccc2Cl)o1 (stereo not given) | 4094 | 5 | 6 | 1 | 1 | 4 | -1.4
Cc1ccc(C2=NN(Cc3nnc(-c4ccccc4)o3)C(=O)SC2)cc1 | 2500 | -34 | -10 | -15 | 5 | 9 | 13
O=C(NC(=S)N1CCN(Cc2ccccc2)CC1)c1ccccc1 | 2052 | -14 | 4 | 6 | 15 | 6 | -0.3
COc1ccccc1NC(=O)C(=N\O)/C(C)=N/O | 2317 | -13 | 1 | · | · | · | ·
COCCCC1CCN(C(=O)C2CCC(=O)N(CCc3ccccc3)C2)CC1 (stereo not given) | 4789 | -30 | -2 | 13 | 8 | 0 | -0.3
Cc1ccc(C(=O)NC2CC(C)(C)NC(C)(C)C2)cc1S(=O)(=O)N1CCCCC1 | 5674 | -18 | -6 | 7 | 6 | 11 | 0.0
Cc1cccc(C2=NN(c3ccccc3)[C@H](CO)[C@H]2c2ccc(F)cc2)c1 | 4266 | -22 | · | -34 | 0 | -4 | -11
CC(=NNC(=O)c1cnccn1)c1cccs1 | · | · | · | 1 | 5 | 9 | 2.0
CSCCC(NC(=O)c1ccccc1Cl)C(=O)Nc1ccncc1 (stereo not given) | 5796 | 8 | · | 0 | -8 | 0 | 4.7
Cc1sc2nc(SCC(N)=O)n(C)c(=O)c2c1C | 9274 | -19 | -4 | -4 | -5 | 1 | -0.8
CC(CCc1ccc(O)cc1)NCc1ccc(Br)cc1 (stereo not given) | 3849 | -15 | 8 | 0 | 8 | 9 | 1.6
NCCCS(=O)(=O)O | 4619&5548 | 74*! | -17 | 1&-4 | 6&2 | 7&-1 | 1.8&2.6
O=C1Nc2ccccc2C1=Nc1cccc(Cl)c1 | 3635 | 2 | -3 | 0 | -2 | 12 | -6.2
CCCCN(C)CCN1C(=O)C2C(C(=O)Nc3cccc(OC)c3)C3C=CC2(O3)C1C(=O)NC1CCCCC1C (stereo not given) | 2872 | -13 | -3 | -1 | 9 | 3 | 2.2
CC(C)N1CCC2(CC1)NC(CO)(CO)CO2 | 10039 | -28 | 4 | 7 | 5 | 3 | 0.2
Cc1ccc(SCCNC(=S)Nc2ccccc2)cc1 | 2829 | -8 | 1 | -10 | · | · | 2.4
CCOCC(=O)Nc1ccc(S(=O)(=O)N2CCOCC2)cc1 | 4441 | -3 | 6 | 0 | · | · | 0.5
CCSC1(SCC)N=C(N)C2(C#N)C(c3ccccc3)NC(C)=CC12C#N (stereo not given) | 2485 | -16 | 14 | 2 | 9 | 7 | 6.7
COc1ccc(C(=O)Nc2cccc(C(=O)NCc3ccccc3)c2)cc1 | 4434 | -23 | -2 | 4 | 12 | 2 | 4.9
COC(=O)Cn1cc(C(=O)C(C)(C)C)c2ccccc21 | 4350 | -13 | 4 | 5 | 11 | 9 | -0.6

Following part
SMILES | Bead autofluor | PrP UTR inh | BJeLR lethal | Sa ugtP lethal | Mtb hypoxia inh | Mtb hypoxia inh growth | Sa RN4220 lethal
O=C(O)c1ccc(S(=O)(=O)c2ccc3c(c2)C(=O)N(c2ccccc2[N+](=O)[O-])C3=O)cc1 | 5252 | -23 | 1 | 8 | 9 | 13 | 1.5
O=C(c1ccc(=O)n(Cc2ccc(Cl)c(Cl)c2)c1)N1CCOCC1 | 8443 | -18 | -1 | -7 | 7 | 6 | 1.7
Cc1cc(=O)n2[nH]c(-c3ccccc3)cc2n1 | 4154 | -15 | 24 | 2 | · | · | 2.0
Cc1cc(NS(=O)(=O)Cc2ccccc2)no1 | 4311 | -28 | -7 | 3 | 17 | 6 | 7.6
CC1(C)Cc2ccccc2C(NNC(=O)c2ccccc2)=N1 | 4366 | -20 | · | 2 | 12 | 9 | 2.8
CC(=NNc1ncc(Cl)cc1Cl)c1ccc2c(c1)OCO2 | · | · | · | 4 | 1 | 13 | 0.8
O=C(CSc1ncccc1C(=O)O)NCc1ccc(F)cc1 | 4822 | -17 | -9 | -10 | · | · | 0.1
Cc1ccc(NC(=O)c2ccc3nc(N4CCOCC4)sc3c2)c(Cl)c1 | 5921 | -11 | 5 | -4 | -4 | -5 | 6.6
O=C(O)c1cc(O)ccc1NC(=O)c1cccc2ccccc12 | 3484 | 0 | 0 | 1 | 13 | -1 | 1.8
COC(=O)c1sc(NC(=O)CSc2nc3nc(C)cc(C)n3n2)c(C(=O)OC)c1C | 4299 | -18 | -2 | 0 | -9 | 5 | -0.4
Cc1cccc(NC(=S)NNC(=O)c2ccccc2Br)c1 | 1854 | -39 | -1 | · | · | · | ·
CC1CCCC(=O)CCCC=Cc2cc(O)cc(O)c2C(=O)O1 (stereo not given) | · | · | · | -12 | 2 | 5 | -3.2
Nc1cc2nc3ccccc3oc-2cc1=O | 4243 | -37 | · | 31 | · | · | 38
CC(C)N(Cc1nccn1C)C(=O)c1cc(COc2ccc(-n3cncn3)cc2)on1 | 6240 | -21 | 6 | -3 | -9 | 7 | -0.7
CN(C)c1nc(N)c(C(=O)N=C(N)N)nc1Cl | 5189 | -26 | 2 | -15 | -6 | -11 | -5.8
CCc1ccc(-c2cc(C)no2)cc1S(=O)(=O)NCc1ccccc1OC | 6045 | -7 | 0 | 3 | 3 | 6 | 10
CCOc1ccc(CCNS(=O)(=O)c2cccc3nsnc23)cc1OCC | 2518 | -1 | 5 | 7 | · | · | -1.4
Cc1cc(C)n2nc(C(=O)OCC(=O)N(CC(C)C)C3CCS(=O)(=O)C3)nc2n1 (stereo not given) | 3796 | -17 | · | 4 | 0 | 5 | 6.5
O=C(CCC1=NS(=O)(=O)c2ccccc2N1)NC1CCCCCCC1 | 3135 | -14 | 1 | -5 | 3 | 3 | -0.4
CCN1C(=O)c2ccc(C(=O)Nc3ncc(C)s3)cc2C1=O | 4074 | -35 | 4 | 7 | 3 | 0 | 11
Cc1cccc(N2CCN(C(=O)[C@H](C)N3C(=O)C4CC=CCC4C3=O)CC2)c1C (stereo not given in full) | 4110 | -10 | · | 1 | 11 | 7 | 2.2
CCOC(=O)N1CCN(Cc2nc(-c3cccs3)no2)CC1 | 4722 | -32 | 8 | -4 | -4 | 4 | 0.0
O=C(CNC(=O)c1ccccn1)N/N=C/c1ccccc1 | 2896 | -20 | -3 | · | · | · | ·
COc1cc(NC(=O)C2=C(C)OCCS2)c(Cl)cc1C(=O)NCCN1CCN(C)CC1 | 5105 | -17 | 3 | -1 | 15 | 5 | 1.0
Cc1ccc2c(CSc3nnc4ccccn34)cc(=O)oc2c1C | 10323 | -22 | -4 | 8 | 4 | 3 | 4.1

More records follow:
SMILES | Bead autofluor | PrP UTR inh | BJeLR lethal | Sa ugtP lethal | Mtb hypoxia inh | Mtb hypoxia inh growth | Sa RN4220 lethal
CSc1nc2ccccc2n1CC(=O)Nc1cc(C(F)(F)F)ccc1N1CCOCC1 | 2994 | -6 | -9 | -10 | 2 | 3 | 0.0
CC(C)(C)Nc1c(-c2ccc(O)cc2)nc2ccc(Cl)cn12 | 4291 | 1 | 1 | 5 | 12 | 4 | 8.2
CCOC(=O)Cn1c(CCC(=O)O)ccc1-c1ccc(F)cc1 | 4894 | -5 | 3 | 4 | · | · | 0.7
COCc1cc(C)nc(OCC(=O)NN=Cc2ccc(-c3cccc([N+](=O)[O-])c3)o2)c1C#N | · | · | · | 3 | 2 | 7 | 6.6
Cc1cc(C(=O)c2cnc(/N=C/N(C)C)s2)cc(C)c1O | 3767 | -22 | 2 | · | · | · | ·
CCC(C)(C)NC(=O)C(c1ccc(C)cc1)N(Cc1ccco1)C(=O)Cn1nnc2ccccc21 (stereo not given) | 3601 | -6 | -2 | -3 | · | · | -0.6
CCOC(=O)c1cnc2c(c(C)nn2CC)c1NCCN1CCOCC1 | 4460 | 7 | 5 | 6 | 6 | 3 | 16
CCOc1ccc(C=NNC(=O)c2ccc(F)cc2)cc1CN1CC2CC(C1)c1cccc(=O)n1C2 (stereo not given) | · | · | · | 0 | 5 | 15 | -1.0
C/C(=N\NC(=O)c1ccc(Br)cc1)c1cccnc1 | 6315 | -19 | 2 | · | · | · | ·
C/C(=N\NC(=O)CC1N=C(Cc2ccccc2)NNC1=O)c1ccccc1 (stereo not given) | 4734 | -21 | -4 | · | · | · | ·
COc1ccc(N2C(=O)CCC(C(=O)N3CCCCCC3)C2c2ccc(OC)c(OC)c2)cc1 (stereo not given) | 9805 | -25 | -10 | 0 | 11 | 7 | 5.1
CN(C)CCN=Cc1c(O)n(C2CCCCCC2)c(=O)[nH]c1=O | 2554 | -13 | 9 | 4 | · | · | 2.7
CCN1CCCC1CNS(=O)(=O)c1ccc(Cl)c(C(F)(F)F)c1 (stereo not given) | 4729 | -10 | -4 | -75 | 14 | 1 | 17
CCCn1c2ccccc2c2cnn(CC(=O)NCCCN3C(C)CCCC3C)c(=O)c21 (stereo not given) | 6974 | -31 | -5 | 10 | 5 | -6 | 3.3
O=C(Nc1ccc(N2CCOCC2)cc1)C1CCN(S(=O)(=O)Cc2ccccc2)CC1 | 2393 | -8 | 0 | 9 | · | · | 1.7
Cc1cccc(C)c1NC(=O)COC(=O)COc1ccc2c(C)cc(=O)oc2c1 | 1954 | -12 | -18 | 7 | 13 | 5 | 3.8
O=C(NC1CC1)C1=CC(C2CC2)CC(OCc2ccc(CO)cc2)O1 (stereo not given) | · | · | · | 2 | 15 | 12 | 6.0
Cn1ccnc1C(O)c1ccc(OCc2ccccc2)cc1 (stereo not given) | 2586 | -12 | -2 | 0 | 2 | 6 | 0.7
O=c1sc2ccccc2n1CCCOc1ccccc1 | 3155 | -90 | -7 | 3 | · | · | 2.6
CCn1c(C)cc(C(=O)COC(=O)c2cccnc2SC)c1C | 3884 | -9 | · | 4 | -3 | 3 | 6.0
CSCc1nnc(NC(=O)c2ccc(S(=O)(=O)N3CCCCC3C)cc2)o1 (stereo not given) | 5624 | -22 | -16 | 0 | -9 | 1 | 23
O=C(O)CCS(=O)(=O)c1cc(Br)cc2c1N(C(=O)C1CC1)CC2 | 3048 | -12 | 1 | -72 | 3 | 2 | 7.5
Cn1c2c(c3ccccc31)CC/C2=N\O | 4369 | -14 | -11 | · | · | · | ·
CCCCn1nnnc1SCC(=O)Nc1cccc(C)n1 | 4924 | -3 | 1 | 5 | · | · | 5.1
CCN(CC)CCCNC(=O)c1csc(Nc2cccc3ccccc23)n1 | 3183 | -17 | 6 | 12 | 16 | 13 | 3.4
Cc1cc(C)cc(NC(=O)c2c(C)nc3ccccn23)c1 | 3550 | -23 | 1 | -1 | 21 | 12 | 9.8
COc1ccc(Cl)cc1CN1C(=O)NC2(CCCCCC2)C1=O | 3714 | -19 | 5 | 0 | 5 | 3 | 0.6
CCNC(=S)N(Cc1cc2cc(C)ccc2[nH]c1=O)C1CCCC1 | 2050 | 13 | 5 | 1 | 9 | 6 | 2.2

Record cards, as listed above.
Cn1ccnc1C(O)c1ccc(OCc2ccccc2)cc1 (stereo not given) as listed: Bead autofluor: 2586; PrP UTR inh: -12; BJeLR lethal: -2; Sa ugtP lethal: 0; Mtb hypoxia inh: 2; Mtb hypoxia inh growth: 6; Sa RN4220 lethal: 0.7
CCOc1ccc(C=NNC(=O)c2ccc(F)cc2)cc1CN1CC2CC(C1)c1cccc(=O)n1C2 (stereo not given) as listed: Bead autofluor: ·; PrP UTR inh: ·; BJeLR lethal: ·; Sa ugtP lethal: 0; Mtb hypoxia inh: 5; Mtb hypoxia inh growth: 15; Sa RN4220 lethal: -1.0

Screening data as filed in PubChem.

Random draw from the library. About 4% of those tested had a hit in this group.
